Assay outcomes deposited in PubChem BioAssay by National Center for Advancing Translational Sciences (NCATS).
D2 ag = agonists of human D2 dopamine receptor (beta-arrestin). activation, % (no concentration beside the values). DiscoveRx PathHunter D2 beta-arrestin, luminescence, 90 min; 100% = 57 uM dopamine signal. AID 624465. P14416. 360,000 compounds, 0.084% hits; in the data active = activation above about 40%; inconclusive = about 15% to 40%; inactive = below about 15%; note: compound concentration not given in the record; the text of the record calls up to 30% inactive
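DiscoveRx PathHunter D2 beta-arrestin cells (2,100/well) attached overnight, then compound-stimulated 90 min at 37 C in HBSS/10 mM HEPES/0.1% Tween-20 buffer; beta-galactosidase complementation read by luminescence after 1 h at ambient temperature. Dopamine 57 uM final (EC100) as control.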
CtBP-E1A blk = CtBP/E1A binding inhibition | AlphaScreen GST-E1A/His-CtBP binding, 1536-well; hits give low values; control for the full effect not named in the record | activity change, % (test concentration not listed) | 340,000 compounds, 0.49% hits; in the data active means activity change below about -65%; inconclusive means about -30% to -65%; inactive means above about -30%; note: % is set by controls: 0 for no effect and ±100 for the full control effect
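AlphaScreen with 125 nM GST-E1A and 125 nM His-CtBP (5X stocks) in Tris pH 8.0, 300 mM NaCl, BSA, Tween 20, TCEP. Compounds preincubated 2 h at 37 deg C, then glutathione donor/nickel acceptor beads added for 1 h at 37 deg C in dark.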
TRPV1 potentiator = potentiators of human vanilloid receptor 1 (TRPV1); Q8NER1; TRPV1-expressing cells, Fluo-8 calcium influx, capsaicin EC20 potentiation; host cell line not named in the record; control for the full effect not named in the record; potentiation, % at 8.33 µM; 320,000 compounds, 0.02% hits; AID 540277; active means potentiation above 80%; inconclusive means 30% to 80%; inactive means below 30%; note: 0% is about no effect
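Fluo-8 calcium influx in TRPV1-expressing cells, kinetic read (ex 480/em 520 nm). Compound added and read 3 min for agonist activity, followed by capsaicin at EC20 final and 2 min further read for enhancement.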
D2 PAM = potentiates the human D2 dopamine receptor allosterically. potentiation, % (test concentration not listed). P14416. DiscoveRx D2 beta-arrestin cells, luminescence, 90 min; 100% = 57 uM dopamine signal. 360,000 compounds, 0.23% hits; active = potentiation of 50% or more; inconclusive = 30% to 50%; inactive = 30% or less;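 note: compound concentration not given in the record; tested on top of an EC20 dose of dopamine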
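PathHunter D2 cells, attached overnight at 37 deg C, received compound in DMSO plus dopamine at EC20 (50 nM final) for 90 min at 37 deg C. Beta-arrestin recruitment was read as luminescence after 1 h with detection reagent at ambient temperature.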
PINK1 expr mod = changes PINK1 expression; Potency, µM (top dose mostly 76.6 µM), inactives show at the highest dose activation (PINK1 increase), actives largely listed as activators; PINK1 immunofluorescence, high-content cytometry, 24 h; 410,000 compounds, 0.2% hits; active = well fitted activation curve with a large enough effect; inconclusive = small, poorly fitted or top-dose-only effect; inactive = flat fitted curve, though single readings scatter; cell line not stated here;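 note: potency is the fitted concentration of half-maximal effect; % of control where 0% means no effect; nearly all actives have a fitted effect of over 65% in size; a mitochondrial uncoupler was the plate control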
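Stable cell line treated 24 h with compounds at 5 concentrations (CCCP controls), then fixed and immunostained for PINK1 plus nuclear and cell stains; PINK1 immunofluorescence quantified by laser-scanning microplate cytometry.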
Six1-Eya2 blk = Six1/Eya2 interaction inhibition. AlphaScreen GST-Six1/His-Eya2 binding, biochemical; hits give low values; control for the full effect not named in the record. activity change, % (test concentration not listed). 360,000 compounds, 0.56% hits; in the data active = activity change below about -65%; inconclusive = about -30% to -65%; inactive = above about -30%; note: % is set by controls: 0 for no effect and ±100 for the full control effect
Target sequence (O00167 whole entry, looked up): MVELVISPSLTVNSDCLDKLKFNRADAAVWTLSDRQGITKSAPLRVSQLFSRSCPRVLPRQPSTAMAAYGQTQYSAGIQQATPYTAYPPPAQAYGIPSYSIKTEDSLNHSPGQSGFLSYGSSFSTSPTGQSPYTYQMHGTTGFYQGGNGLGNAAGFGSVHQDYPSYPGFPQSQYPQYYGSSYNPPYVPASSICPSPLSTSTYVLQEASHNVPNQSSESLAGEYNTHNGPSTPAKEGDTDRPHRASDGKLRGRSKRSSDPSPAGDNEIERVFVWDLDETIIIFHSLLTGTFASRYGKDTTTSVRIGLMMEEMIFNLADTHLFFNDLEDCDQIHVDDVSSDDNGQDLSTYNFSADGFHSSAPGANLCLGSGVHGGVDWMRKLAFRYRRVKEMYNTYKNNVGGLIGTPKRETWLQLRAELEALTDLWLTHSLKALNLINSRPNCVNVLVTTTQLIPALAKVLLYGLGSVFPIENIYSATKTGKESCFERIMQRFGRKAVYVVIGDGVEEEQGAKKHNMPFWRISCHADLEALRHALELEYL
Target sequence (Q15475 whole entry, looked up): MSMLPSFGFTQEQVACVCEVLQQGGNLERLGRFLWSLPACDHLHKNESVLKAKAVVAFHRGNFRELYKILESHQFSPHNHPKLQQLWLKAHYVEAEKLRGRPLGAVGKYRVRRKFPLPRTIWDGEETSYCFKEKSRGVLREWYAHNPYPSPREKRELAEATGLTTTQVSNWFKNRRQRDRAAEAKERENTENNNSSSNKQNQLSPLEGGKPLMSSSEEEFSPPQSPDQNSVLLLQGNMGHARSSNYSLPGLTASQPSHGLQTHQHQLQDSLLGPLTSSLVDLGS
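Compounds are tested against tagged Six1 and Eya2 proteins bridged by glutathione donor and nickel acceptor beads; after a one-hour incubation at 37 °C without light, AlphaScreen emission is recorded.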
Sfp PPTase inh = Sfp phosphopantetheinyl transferase inhibition. Potency, µM, for the others: max response, negative = inhibition, actives largely listed as inhibitors. AID 1490. 310,000 compounds, 3.5% hits. Biochemical Sfp PPTase activity, qHTS; active = well fitted inhibition curve with a large enough effect; inconclusive = small, poorly fitted or top-dose-only effect, or another doubt; inactive = no such curve, though single readings can be large or run the other way;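 note: the enzyme is Sfp with the accession as filed and its product quenches rhodamine fluorescence; potency is the fitted concentration of half-maximal effect; 0% = enzyme reaction without inhibitor and -100% = no enzyme wells; top concentration of the series not given in the record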
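Reaction rates are the 30-min fluorescence difference (ex 525, em 598 nm) in wells containing 15 nM Sfp, 5 uM rhodamine-CoA and 12.5 uM BHQ-2-YbbR at pH 7.6 with 10 mM MgCl2.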
* marks the source's active call; other numbers are inactive results; ? = inconclusive; · = no result given; [ ] = dose if it differs, or a comment. These rows are one share of the data; count on the stated rates, not on these rows.

SMILES	D2 ag	CtBP-E1A blk	TRPV1 potentiator	D2 PAM	PINK1 expr mod	Six1-Eya2 blk	Sfp PPTase inh
O=C1NC(=O)N(c2ccccc2F)C(=O)/C1=C/c1cn(CC(=O)N2CCOCC2)c2ccccc12	-1.9	-0.5	2.2	-1.8	6.6%	-19.4	?
COc1cccc(CN2CCN(C(=O)Cc3ccccc3OC)CC2)c1	1.5	·	-1.9	-34.7	0.3%	10.0	8.0%
COCCNC(=O)CN1C(=O)C(C)N=C(c2ccccc2)c2cc(Cl)ccc21 (configuration not stated)	-1.0	-19.5	-29.4	-7.9	7.8%	3.1	4.6%
Cn1c(O)c(/C=C2\N=c3ccccc3=C2CCNC(=S)NC2CC2)c(=O)n(C)c1=O	-2.5	5.8	4.5	-6.5	-1.1%	-6.0	31.6µM*
CC1(C)C(=O)C=C[C@]2(C)[C@H]3CC[C@@]4(C)[C@H](c5ccoc5)OC(=O)[C@H]5O[C@]54[C@]3(C)[C@H](O)C[C@@H]12	-3.8	1.6	-12.2	-5.4	0.3%	2.2	-3.3%
O=C(NC1CCCCC1)[C@@H]1CC=C[C@@H]2CCN(Cc3ccccc3)C(=O)[C@@H]21	-1.9	0.0	·	-9.7	1.1%	3.8	·
COC(=O)c1ccccc1N=Cc1c(O)[nH]c(=S)[nH]c1=O	-8.8	·	0.2	-3.4	2.8%	-2.7	-23.8%
Cc1ccc(NC2=NCCCS2)cc1Cl	1.0	4.4	4.8	-9.0	2.0%	-0.5	6.5%
COc1ccc(CN2Cc3cc(N4CCCCC4)ccc3-n3nncc3C2)cc1	-4.2	-22.9	·	-6.5	1.1%	-27.5	·
C/C(=N\NC(=O)c1ccccc1)c1c(O)n(C2CCCCC2)c(=O)[nH]c1=O	-0.7	·	-9.1	-3.3	5.3%	-2.2	11.5%
COc1cccc(CC(=O)N2CCN(Cc3cccc(Cl)c3)CC2)c1	-0.9	-4.1	-18.7	-5.5	3.6%	-9.1	19.6%
CCOC(=O)C1(c2ccccc2)CCN(CC(=O)Nc2cccc3ccccc23)CC1	-7.3	13.1	-7.0	-28.6	?	-10.3	-14.7%
CC1(C)C(=O)CCC2C1=CCC1C2CCC2(C)C(O)CCC12 (configuration not stated)	2.3	9.8	·	4.1	1.3%	3.1	·
N#Cc1ccccc1NC(=O)CN1CC=C(c2ccccc2)CC1	-6.0	3.4	-21.5	-7.1	0.7%	5.2	2.4%
Cc1[nH]c2ccc(OC(F)(F)F)cc2c1CCNCc1ccc(Cl)cc1	-5.1	-11.2	-4.3	-19.1	-3.5%	1.3	-27.7%
C=CCN1C(=O)/C(=C\c2ccc(N3CCOCC3)o2)C(=O)NC1=S	-6.3	-13.4	-3.8	-8.3	1.6%	-0.8	56.2µM*
CC(C)=CCC/C(C)=C/CN(CC(C)O)CC(C)O (configuration not stated)	-0.7	4.8	-3.0	-0.9	1.4%[38.3 µM]	3.9	?
CCCCn1c(N)c(C(=O)OCC2CCCO2)c2nc3ccccc3nc21 (configuration not stated)	-1.0	6.6	28.0	-11.3	?	-1.7	-10.3%
Cc1cc(C)cc(N2C(=O)NC(=O)/C(=C/c3cccn3-c3ccc(Cl)cc3)C2=O)c1	0.8	4.0	4.2	-6.5	-0.8%	-4.9	50.1µM*
CCCCCn1c(=O)c(C(=O)Nc2ccccc2Cl)c(O)c2ccccc21	-2.5	·	10.5	2.1	5.3%	2.9	17.5%
COc1ccc(CN2CCN(C(=O)COc3ccc4ccccc4c3)CC2)c(OC)c1	-4.9	-14.5	-7.1	-23.7	-1.0%	-4.5	?
O=C(NCC(c1cccnc1)N1CCOCC1)Oc1ccccc1 (configuration not stated)	-0.7	10.8	-4.8	5.6	2.3%	3.7	-2.6%
O=C1/C(=C\c2ccc(Cl)c(Cl)c2)N2CCC1CC2	2.7	8.4	2.0	-3.7	6.8%	-1.5	-23.7%
CC1CC2C(C(O)CC3(C)C(O)CCC23)C2(C)CCC(=O)C=C12 (configuration not stated)	4.9	2.1	·	1.4	-0.2%	3.9	·
COC(=O)c1c(C)n(Cc2ccco2)c2ccc(O)cc12	1.1	-8.8	-9.2	-11.2	-1.7%[38.3 µM]	-7.9	?
COc1ccc(N=C(C)c2c(O)n(C3CCCCC3)c(=O)[nH]c2=O)c(OC)c1	5.0	4.0	-5.8	19.5	10.6%	0.9	3.0%
O=C(c1ccc(N2CC3CC(C2)c2cccc(=O)n2C3)c([N+](=O)[O-])c1)N1CCCC1 (configuration not stated)	-2.4	-0.9	-14.7	-28.1	-0.7%	3.8	4.3%
COc1ccc(CC2c3cc(OC)c(OC)cc3CCN2C)cc1O (configuration not stated)	-2.3	9.1	10.2	-18.6	0.3%	0.5	6.4%
CC(=O)OC1(c2ccc(C)cc2)CN2CCC1c1ccccc12 (configuration not stated)	2.3	-2.3	-2.3	-4.9	-1.1%	1.4	11.2%
O=C(CN1CCCC1=O)NCCc1ccccc1	-3.8	4.9	-6.2	-4.5	3.3%	2.9	31.9%[activator]

Two of these compounds in a different format:
COc1ccc(CC2c3cc(OC)c(OC)cc3CCN2C)cc1O (configuration not stated)
  D2 ag = -2.3 | CtBP-E1A blk = 9.1 | TRPV1 potentiator = 10.2 | D2 PAM = -18.6 | PINK1 expr mod = 0.3% | Six1-Eya2 blk = 0.5 | Sfp PPTase inh = 6.4%

CC(=O)OC1(c2ccc(C)cc2)CN2CCC1c1ccccc12 (configuration not stated)
  D2 ag = 2.3 | CtBP-E1A blk = -2.3 | TRPV1 potentiator = -2.3 | D2 PAM = -4.9 | PINK1 expr mod = -1.1% | Six1-Eya2 blk = 1.4 | Sfp PPTase inh = 11.2%

Further compounds
SMILES	D2 ag	CtBP-E1A blk	TRPV1 potentiator	D2 PAM	PINK1 expr mod	Six1-Eya2 blk	Sfp PPTase inh
O=[N+]([O-])c1ccc(N2CCNCC2)cc1NCC1CCCO1 (configuration not stated)	-3.2	7.4	-2.9	-13.3	3.3%[38.3 µM]	-0.4	-3.6%
Cc1ccc(-n2c(O)c(C=NCCCn3ccnc3)c(=O)[nH]c2=O)cc1	0.9	-2.0	-1.6	-1.2	3.9%	5.5	0.5%
CN(C)C(=O)Oc1cccc(-c2cn3cc(Cl)ccc3n2)c1	2.5	-0.3	-1.6	16.5	-0.9%	-5.0	1.1%
CCCC(=O)NC(Oc1ccc(Cl)cc1Cl)C(Cl)(Cl)Cl (configuration not stated)	-0.1	0.8	13.7	3.8	-4.8%[38.3 µM]	-3.8	13.9%
COc1ccc2[nH]c(C)c(CCNCc3cc(OC)c(OC)c(OC)c3)c2c1	-1.0	3.6	-2.6	-13.6	1.1%	-9.1	44.7µM*
Cc1cc(N2C(=O)CC(N3CCC(n4c(=O)[nH]c5ccccc54)CC3)C2=O)no1 (configuration not stated)	-0.7	3.0	6.4	10.1	0.8%	-5.7	?
Cc1ccc(CN2CCCN(Cc3ccc(Cl)cc3)S2(=O)=O)cc1	7.3	25.1	16.8	-1.5	2.7%	16.3	-6.7%
COC(=O)C1=C(c2ccc(F)cc2F)C[C@@H]2CC[C@H]1N2C	2.4	7.3	13.9	0.6	-0.4%	-0.4	·
O=c1[nH]c(=O)n(C2CCCCC2)c(O)c1/C=C/C=Nc1ccccc1	-5.5	5.0	9.0	13.2	14.6%	6.0	14.1%
CC1CN=C(Nc2ccc(F)c(Cl)c2)S1 (configuration not stated)	-2.8	-0.8	-16.8	-3.6	1.3%	-5.6	20.6%
CCOC(=O)N(C)c1ccc(C(O)(C(=O)OCC)C(F)(F)F)cc1 (configuration not stated)	-0.5	4.3	-6.2	-6.3	-0.6%[38.3 µM]	0.6	4.2%
O=C(c1cnn2c(C(F)(F)F)cc(-c3ccccc3)nc12)N1CCC2(CC1)OCCO2	0.4	3.3	-14.6	-8.0	-0.9%[38.3 µM]	5.3	11.1%
CC(=O)N1CCC2(CC1)CC(=O)c1cc(OCC(=O)N3CCC4(CC3)OCCO4)ccc1O2	2.3	8.8	-30.0	1.8	3.3%	1.4	-21.0%
CN1CCC(O)(c2ccc(Cl)cc2)C(C(=O)c2ccc(Cl)cc2)C1 (configuration not stated)	-3.2	-5.0	11.2	-4.0	3.1%	-2.7	-8.0%
C[N+](C)(C)CC(=O)O	-3.2	-0.3	-11.1	2.2	-0.2%	1.1	·
Cc1cc(N)n(C2CCN(C)CC2)n1	-0.7	-0.7	-3.4	-6.8	-2.3%	0.2	7.8%
COc1cccc(C(c2nnnn2C2CCCCC2)N2CCC3(CC2)C(=O)NCN3c2ccccc2)c1OC (configuration not stated)	3.8	-11.6	·	-9.0	2.9%	-14.8	·
CC(=O)Nc1nnc(CCN(CCc2nnc(NC(C)=O)s2)[N+](=O)[O-])s1	-3.7	4.6	16.3	-3.1	0.4%	-3.8	9.5%
COCCNCCOc1ccc(C(C)(C)c2ccccc2)cc1	-4.1	2.6	-8.5	-15.1	14.2%	5.8	-22.7%
COCCOC(=O)C1=C(N)Oc2c(c(=O)oc3ccccc23)[C@@]12C(=O)Nc1ccccc12	-1.7	-2.8	-6.1	-4.1	-0.4%	-1.9	16.7%
C=Cn1ccnc1P(=S)(c1ccn(C)c1)c1nccn1C=C	-3.0	-7.7	0.3	-5.1	-1.2%	2.4	-15.3%
COC(=O)C1=C(c2cccc(C#N)c2)C[C@@H]2CC[C@H]1N2C(=O)NCCCOC(C)C	-2.5	-14.9	2.8	-5.3	-0.3%	0.6	·
CC1CCCCN1Cc1ccc(Cl)nc1 (configuration not stated)	1.8	6.4	4.1	-4.8	2.9%	7.8	12.7%
CC1CC(C)OP(=O)(OCCC#N)O1 (configuration not stated)	2.1	-7.1	·	-6.4	0.4%	11.3	·
CCOc1c(P(=S)(N(C)C)N(C)C)c(C)nn1-c1ccccc1	-2.5	3.5	-2.8	-29.4	0.2%	-2.1	11.1%
CCCn1c(C(=O)c2ccc(OC)cc2)nc2ccccc21	-5.4	10.8	-2.1	-0.3	4.6%	8.9	-3.6%
CCn1c(C(=O)N2CCC(C(=O)N3CCC4(CC3)OCCO4)CC2)cc2sccc21	0.0	14.7	-7.4	-22.0	·	-1.3	18.1%
CC(C)NC(=O)c1ccc(N2CC3CC(C2)c2cccc(=O)n2C3)c([N+](=O)[O-])c1 (configuration not stated)	-0.9	7.8	-17.5	-17.8	1.3%	-13.6	18.1%
CN1C(=O)C(=Cc2sc(=O)n(-c3ccccc3)c2N2CCCCC2)C(=O)N(C)C1=O	-9.8	2.3	4.5	-15.2	-0.6%	-2.3	-10.5%
Cc1ccc(CS(=O)(=O)CCC(=O)N2CCC3(CC2)OCCO3)cc1	-4.6	1.8	-2.3	-15.5	-6.6%[38.3 µM]	5.7	12.6%
